Lassa entry inh – inhibitors of Lassa virus binding or cell entry; 1.2% of 300,000 active; Potency, µM (titrated, usually from 37.9 µM), without a hit: top-dose activity change, negative = inhibition, actives largely listed as inhibitors; AID 540256; Lassa virus pseudotype entry inhibition, cell reporter; control for the full effect not named in the record; active means well fitted inhibition curve with a large enough effect; inconclusive means small, poorly fitted or top-dose-only effect, or effect the other way; inactive means flat fitted curve, though single readings scatter; tested in HEK293 cells; note: % is set by controls: 0 for no effect and ±100 for the full control effect; nearly all actives have a fitted effect of over 50% in size; luciferase read-out
NS1 function inh – inhibitors of influenza NS1 protein function; Potency, µM (series often up to 46.1 µM), without a hit: at the highest dose activity, positive = more growth; 0.4% of 270,000 active; S. cerevisiae slowed by influenza A NS1, growth recovery by OD600; note: actives are rising curves; nearly all actives have a fitted effect of over 50% in size
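Read-out: OD600 growth recovery of NS1-expressing budding yeast. Cells grown overnight at 30C in -URA glucose medium, washed, resuspended and diluted 1:100 in 2% galactose assay medium, pH 6.0. Same strain lacking NS1 served as positive control.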
Cruzain noTriton – blocks cruzain activity in detergent-free assay; AID 1476; 2.3% of 200,000 active; purified cruzain, Z-FR-AMC fluorescence, no detergent; Potency, µM, for the others: max response, negative = inhibition, hits mostly inhibitors; active = well fitted curve in the direction sought with a large enough effect; inconclusive = small, poorly fitted or top-dose-only effect, or another doubt; inactive = no such curve, though single readings can be large; an effect the other way counts as inactive or inconclusive;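 note: plate controls were enzyme without inhibitor for no effect and buffer without enzyme for full effect; nearly all actives have a fitted effect of over 40% in size; top concentration of the series not given in the record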
Target sequence (P25779 123-467 limits assumed): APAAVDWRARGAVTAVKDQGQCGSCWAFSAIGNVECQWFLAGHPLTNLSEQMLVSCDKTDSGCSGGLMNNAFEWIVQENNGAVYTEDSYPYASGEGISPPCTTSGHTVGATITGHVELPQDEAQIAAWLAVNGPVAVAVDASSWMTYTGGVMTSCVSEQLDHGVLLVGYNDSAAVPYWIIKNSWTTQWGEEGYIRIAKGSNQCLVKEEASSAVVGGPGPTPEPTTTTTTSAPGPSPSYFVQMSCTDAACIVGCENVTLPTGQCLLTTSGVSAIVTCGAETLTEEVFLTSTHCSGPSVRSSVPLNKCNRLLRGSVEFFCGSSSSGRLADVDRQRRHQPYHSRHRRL
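Detergent-free condition (0.00005% Triton X-100) in acetate buffer pH 5.5 with DTT. 1.5 nM enzyme and compound were pre-mixed 15 min, then 2 uM Z-FR-AMC substrate added; reaction progress from fluorescence change between first and third reads (60 s).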
Marburg entry inh – blocks Marburg virus binding to or entry into cells; 1.8% of 300,000 active; Marburg virus pseudotyped entry inhibition, cell reporter; control for the full effect not named in the record; about a third of the inactives were read at about 46 µM; Potency, µM (series often up to 37.8 µM), for the others: top-dose activity change, negative = inhibition, hits mostly inhibitors; AID 540276; active = well fitted inhibition curve with a large enough effect; inconclusive = small, poorly fitted or top-dose-only effect, or effect the other way; inactive = flat fitted curve, though single readings scatter; tested in HEK293 cells; about a fifth of its hits are not listed in these tables; note: % is set by controls: 0 for no effect and ±100 for the full control effect; luciferase read-out
Cruzain inh Det – blocks cruzain activity in presence of Triton detergent | P25779 | purified cruzain, Z-FR-AMC fluorescence, 0.01% Triton | Potency, µM, inactives show max response, negative = inhibition, hits mostly inhibitors | 0.43% of 200,000 active | AID 1478; active = well fitted curve in the direction sought with a large enough effect; inconclusive = small, poorly fitted or top-dose-only effect, or another doubt; inactive = no such curve, though single readings can be large; an effect the other way counts as inactive or inconclusive;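 note: plate controls were neutral wells for no effect and buffer without enzyme for full effect; nearly all actives have a fitted effect of over 40% in size; top concentration of the series not given in the record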
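Cysteine protease activity tested under reducing, mildly acidic conditions (100 mM sodium acetate pH 5.5, 5 mM DTT) plus 0.01% Triton X-100. Cruzain 1.5 nM; substrate Z-FR-AMC 2 uM; 15 min compound preincubation at room temperature.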
RE007 growth inh – less growth of the S. pombe RE007 Vpr strain. S. pombe RE007 Vpr strain, BacTiter-Glo ATP luminescence, 24 h; control for the full effect not named in the record. Potency, µM (titrated, usually from 92.2 µM), inactives show at the highest dose activity change, negative = less growth. 0.21% of 360,000 active. AID 651644; active = well fitted falling curve with a large enough effect; inconclusive = small, poorly fitted or top-dose-only effect; inactive = no such curve, though single readings can be large or run the other way;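 note: % is set by controls: 0 for no effect and ±100 for the full control effect; nearly all actives have a fitted effect of over 50% in size; the assay follows cell death caused by Vpr and the record does not say whether a fall means rescue or toxicity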
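Fission yeast strain RE007, carrying one chromosomally integrated HIV-1 vpr copy, was seeded at OD 0.01 in PMG+AL medium with 23 nL pinned compound. After 24 h at 30 °C and 99% humidity, viability was read by BacTiter-Glo luminescence.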
2A StopGo – FMDV 2A StopGo reporter, luciferase signal | human cells with a luciferase reporter of 2A StopGo recoding; control for the full effect not named in the record | 1.2% of 410,000 active | Potency, µM (highest dose often 57.9 µM), inactives show at the highest dose signal change, negative = less light; active = well fitted falling curve with a large enough effect; inconclusive = small, poorly fitted or top-dose-only effect; inactive = no such curve, though single readings can be large or run the other way; tested in HEK293T cells; note: % is set by controls: 0 for no effect and ±100 for the full control effect; nearly all actives have a fitted effect of over 45% in size; luciferase light after 4 h
SARS PLP yeast – blocks SARS-CoV papain-like protease in a yeast assay; S. cerevisiae expressing SARS-CoV PLpro, growth rescue; control for the full effect not named in the record; Potency, µM (doses to about 32.9 µM), for the others: at the highest dose activity, positive = growth rescue; 0.19% of 330,000 active; note: 0% is about no effect; nearly all actives have a fitted effect of over 55% in size; growth read by luminescence after 48 h
Numbers without * were called inactive; u = inconclusive; x = no result given; & = joins results of further samples; [ ] = another dose, or the depositor's remark. Unless noted, calls come from the whole dose curve; as a rule, active means well fitted rising curve with a large enough effect; inconclusive means small, poorly fitted or top-dose-only effect; inactive means no such curve, though single readings can be large or run the other way. Potency is the fitted concentration of half-maximal effect.

#1 Cc1c(OCC(=O)C(C)(C)C)ccc2c3c(c(=O)oc12)CCCC3
#2 Cc1cccc(N(CC(=O)N2CCN(C)CC2)S(=O)(=O)c2ccccc2)c1
#3 Cc1cc(C)c2sc(NC(=O)C3CC3)nc2c1
#4 Cc1ccccc1NC1=C(Cl)C(=O)OC1NC(=O)c1ccccc1 (stereo not drawn)
#5 COc1cc2ccccc2cc1C(=O)N1CC(C)OC(C)C1 (stereo not drawn)
#6 CCOCCCNc1nc(C(F)(F)F)nc2c1nnn2Cc1ccccc1Cl
#7 COc1cc(S(=O)(=O)N(Cc2cccs2)C2CC2)ccc1-n1cnnn1
#8 N#Cc1c(NC(=O)c2ccc(N3CCOCC3)c([N+](=O)[O-])c2)sc2c1CCCC2

Assay by compound	1	2	3	4	5	6	7	8
Lassa entry inh	x	u	x	15%	3%	x	-8%	u
NS1 function inh	10%	0%	-18%	2%	x	3%	x	12%
Cruzain noTriton	x	x	x	0%	x	x	x	6%
Marburg entry inh	x	16%	x	21%	8%	x	-21%	9%
Cruzain inh Det	x	x	x	0.7%	x	x	x	-10%
RE007 growth inh	-9%	-1%	-12%	4%	5%	0%	-1%	1%
2A StopGo	-15%	-14%	48%[activator]	x	-9%	u	26%	-2%
SARS PLP yeast	0%	1%	-3%	4%	x	0%	x	-6%

#9 O=C(NCc1ccco1)Nc1cccc([N+](=O)[O-])c1
#10 COc1cccc2cc(-c3n[nH]c(=S)n3C)oc12
#11 COc1ccc(C2CC(=O)C=C(NCCC(C)C)C2)cc1 (stereo not drawn)
#12 Cc1c(NC(=O)CSc2nncc3ccccc23)c(=O)n(-c2ccccc2)n1C
#13 O=C(O)CSc1nc(-c2ccccc2)cc(=O)[nH]1
#14 CCOC(=O)/C(=N\Nc1cc(C(F)(F)F)ccc1Cl)N(CC)CC
#15 COc1cccc(C(=O)NCc2nc(-c3ccccc3)no2)c1OC
#16 Cc1cc(OCCCCCn2ccnc2)cc(C)c1Cl

Assay by compound	9	10	11	12	13	14	15	16
Lassa entry inh	0%[46.1 µM]	-9%	-9%	4%	-3%	u	4%[46.1 µM]	11%[46.1 µM]
NS1 function inh	-7%	x	8%	1%	6%	-3%	x	x
Cruzain noTriton	x	x	-6%	-4%	-2%	-2%	-1%	x
Marburg entry inh	25%[46.1 µM]	0%	4%	12%&12%	u	-4%	u	u
Cruzain inh Det	x	x	-0.2%	-2.5%	0.0%	-6.1%	-5.6%	x
RE007 growth inh	-14%	19%	13%	10%	13%	-4%	x	-23%
2A StopGo	44%[activator]	0%	-19%	-10%	x	-1%	-10%	u
SARS PLP yeast	2%	11%	7%	5%	0%	-10%	x	-3%

Rewritten with bars between the fields: two of the compounds above
entry | molecule | Lassa entry inh | NS1 function inh | Cruzain noTriton | Marburg entry inh | Cruzain inh Det | RE007 growth inh | 2A StopGo | SARS PLP yeast
11 | COc1ccc(C2CC(=O)C=C(NCCC(C)C)C2)cc1 (stereo not drawn) | -9% | 8% | -6% | 4% | -0.2% | 13% | -19% | 7%
10 | COc1cccc2cc(-c3n[nH]c(=S)n3C)oc12 | -9% | x | x | 0% | x | 19% | 0% | 11%

Further structures
#17 CCOc1ccccc1Nc1nnc(SCc2nnc(-c3cc(OC)c(OC)c(OC)c3)o2)s1
#18 O=P(Nc1cccc(Cl)c1)(Oc1ccccc1)Oc1ccccc1
#19 COCCn1c(=O)c2c(nc3n2CC(C)CN3CCc2ccccc2)n(C)c1=O (stereo not drawn)
#20 O=C(CCC(=O)NCc1ccccc1)NCc1ccccc1
#21 COc1ccc(CCNC(=O)CCNS(=O)(=O)c2cccc3nsnc23)cc1OC
#22 Cc1cccc(NC(=O)CCNS(=O)(=O)c2cccc3nonc23)c1C
#23 CC(=O)c1sc(NC(=O)COc2ccc(Cl)cc2Cl)nc1C
#24 CN(C)S(=O)(=O)c1ccc(NS(=O)(=O)/C=C/c2ccccc2)cc1

Assay by compound	17	18	19	20	21	22	23	24
Lassa entry inh	-18%	u	x	x	-14%	1%[46.1 µM]	6%	1%
NS1 function inh	8%	-2%	-13%	0%	3%	x	-8%	-6%
Cruzain noTriton	u	x	x	x	7%	x	x	-4%
Marburg entry inh	u	u	x	x	18%&18%[46.1 µM]	-6%[46.1 µM]	0%	8%
Cruzain inh Det	-6.5%	x	x	x	-1.2%	x	x	-6.4%
RE007 growth inh	-8%	20%	-8%	1%	10%	8%	10%	15%
2A StopGo	u	9%	-28%	-3%	20%	-8%	52%[activator]	58%[activator]
SARS PLP yeast	u	-3%	-5%	3%	-2%	-1%	0%	2%

#25 Cc1ccc(-n2nc(C(=O)O)cc2-c2ccc(Cl)cc2)cc1
#26 CCOC(=O)c1sc(NC(=O)CN2C(=O)C3CC=CCC3C2=O)nc1C (stereo not drawn)
#27 OC(CN1CCCCC1)CN(c1ccccc1)c1ccccc1 (stereo not drawn)
#28 COc1ccc(Br)cc1C(=O)Nc1ccc(NC(=O)c2ccco2)cc1
#29 CCCCOc1ccc(Cc2cnc(N)nc2N)cc1
#30 N[C@@H](Cc1c[nH]c2ccccc12)c1nnc(SCc2ccccc2F)o1
#31 O=C(CSc1nc2[nH]ncc2c(=O)[nH]1)Nc1ccccc1
#32 CC(C)(C)OC(=O)NC(CCNC=C1C(=O)OC(C)(C)OC1=O)C(=O)O (stereo not drawn)

Assay by compound	25	26	27	28	29	30	31	32
Lassa entry inh	15%	-15%	-2%	-7%	u	-11%	-2%	u
NS1 function inh	x	x	-7%	1%	-2%	-68%	x	-9%
Cruzain noTriton	x	x	5%	-18%	x	3%	x	-5%
Marburg entry inh	-16%[46.1 µM]	7%	u	-3%	u	u	15%[46.1 µM]	17%
Cruzain inh Det	x	x	3.7%	-3.7%	x	-5.7%	x	-0.3%
RE007 growth inh	-2%	23%	4%	-1%	3%	-18%	2%	18%
2A StopGo	-24%	2%	u	-1%	-17%	-3%	-1%	13%
SARS PLP yeast	-1%	3%	1%	10%	-2%	-2%	2%	6%

#33 CCc1nc(N[C@@H](CC(C)C)C(=O)O)c2oc3ccccc3c2n1
#34 CCOC(=O)/C(N=Nc1sc(C(=O)OCC)c(C)c1C(=O)OCC)=C(\C)O
#35 O=C(NN=Cc1ccccc1OC(F)F)c1ccc(NS(=O)(=O)c2cccs2)cc1
#36 Cc1ccc2c(c1Cl)NC(C(=O)O)C1CC(Sc3ccccc3[N+](=O)[O-])C(Cl)C21 (stereo not drawn)
#37 Cc1nn(Cc2ccc(Cl)c(Cl)c2)c(C)c1NC(=O)c1cc(-c2ccco2)on1
#38 CCCC(=O)n1nc(NCc2ccc(OC)cc2)nc1NCc1ccc(OC)cc1
#39 Cc1sc2ncn(CC(=O)N3CCN(c4ccc(F)cc4)CC3)c(=O)c2c1S(=O)(=O)N1CCN(c2ncccn2)CC1
#40 CSCCC(NC(=O)c1ccccc1Cl)C(=O)N(C)Cc1cccs1 (stereo not drawn)

Assay by compound	33	34	35	36	37	38	39	40
Lassa entry inh	-4%	-7%	7%	x	u	u	-13%[46.1 µM]	-12%
NS1 function inh	11%	5%	x	6%	-34%	-8%	x	3%
Cruzain noTriton	5%	-6%	x	x	-10%	x	u	x
Marburg entry inh	2%	-12%	-13%	x	u	u	-15%[46.1 µM]	-23%
Cruzain inh Det	0.6%	-3.7%	x	x	-3.2%	x	-3.1%	x
RE007 growth inh	6%	x	18%	13%	-3%	-10%	x	u
2A StopGo	-10%	x	18%	-19%	u	-12%	-28%	-8%
SARS PLP yeast	8%	-12%	u	-1%	-10%	-1%	x	2%

#41 O=C1c2cccc3c(O)ccc(c23)C(=O)N1c1ccc(Cl)cc1
#42 CCOC(=O)c1c(C=O)c(C)n(Cc2ccccc2Cl)c1C
#43 COc1ccc2c(c1)NP(=S)(c1ccccc1)N2 (stereo not drawn)
#44 O=C(COc1ccc(Br)cc1)NCc1ccccn1
#45 Cc1nn(Cc2ccccc2)c(Cl)c1C(=O)NCc1ccco1
#46 CNC(=S)Nc1ccc(OCc2ccccc2)cc1
#47 O=C(CNC(=O)c1ccccc1)OCc1cc(=O)n2ccsc2n1
#48 COc1ccc(NC(=S)N2CCCN(Cc3cccc(Cl)c3)C2)cc1

Assay by compound	41	42	43	44	45	46	47	48
Lassa entry inh	u	2%	u	11%	-29%	x	-21%[46.1 µM]	u
NS1 function inh	17%	-53%	x	-3%	x	-2%	x	x
Cruzain noTriton	x	-3%	x	-1%	x	x	-4%	x
Marburg entry inh	16%[46.1 µM]	11%	-23%[46.1 µM]	11%	-11%	x	x	u
Cruzain inh Det	x	-1.5%	x	1.1%	x	x	-4.5%	x
RE007 growth inh	34%	-13%	u	8%	3%	-2%	x	5%
2A StopGo	13µM*	u	38%[activator]	x	-5%	50%[activator]	4%	-8%
SARS PLP yeast	-3%	-16%	x	-2%	0%	-1%	x	-1%

#49 CCOC(=O)C/C(C)=N/NC(=O)C1CC1(c1ccccc1)c1ccccc1 (stereo not drawn)
#50 Cc1ccc(NC(=S)NCC2CCCO2)cc1 (stereo not drawn)
#51 CS(=O)(=O)N1CCN(C(=O)c2ccc(-c3ccccc3)cc2)CC1
#52 COc1ccc(OC)c(CNC(=O)C2CCN(S(=O)(=O)N3CCCCC3)CC2)c1

Assay by compound	49	50	51	52
Lassa entry inh	13%	u	2%	11%[46.1 µM]
NS1 function inh	u	2%	-18%	-16%
Cruzain noTriton	-3%	-3%	-1%	12%
Marburg entry inh	-1%	u	1%	x
Cruzain inh Det	-2.0%	0.7%	0.2%	-0.5%
RE007 growth inh	-7%	-3%	-3%	-3%
2A StopGo	-2%	47%[activator]	-19%	-10%&-17%
SARS PLP yeast	12%	20%	2%	-2%

Another view of some results above.
Screens in order – Lassa entry inh, NS1 function inh, Cruzain noTriton, Marburg entry inh, Cruzain inh Det, RE007 growth inh, 2A StopGo, SARS PLP yeast
(50) Cc1ccc(NC(=S)NCC2CCCO2)cc1 (stereo not drawn)
→ u, 2%, -3%, u, 0.7%, -3%, 47%[activator], 20%
(51) CS(=O)(=O)N1CCN(C(=O)c2ccc(-c3ccccc3)cc2)CC1
→ 2%, -18%, -1%, 1%, 0.2%, -3%, -19%, 2%

Compound activity from PubChem.
